# miR-21 reporter: miR-21 reporter, rising signal; Potency, µM (series often up to 38.3 µM), for inactives: top-dose reporter change, positive = more light; 340,000 tested, under 10 active; HeLa miR-21 FLuc reporter, luciferase, 48 h; active = well fitted rising curve with a large enough effect; inconclusive = small, poorly fitted or top-dose-only effect; inactive = no such curve, though single readings can be large or run the other way;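 note: % of control where 0% means no effect; miR-21 action dims this reporter so a rising signal means less miR-21 action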
#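 HeLa miR-21-FLuc reporter line, endogenous miR-21; 2000 cells/well in DMEM/10% FBS; compound titration up to ~40uM final, 48 h, 37 degree Celsius; luciferase detection reagent, 15 min lysis, CCD luminescence.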
# GLA inh pH 4.5: alpha-galactosidase A (human) inhibition, pH 4.5; P06280; purified enzyme, 4-MU-alpha-Gal fluorescence, pH 4.5; activity change, negative = inhibition, % at 105 µM; 230,000 tested, under 10 active; inconclusive = small, poorly fitted or top-dose-only inhibition, or a rising curve; inactive = flat fitted curve, though single readings scatter; no compound was filed as active;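 note: 0% = full activity with enzyme and -100% = basal without enzyme; dose as in the result columns while the protocol names 77 µM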
# Rango-impB inh: prevents formation of the Rango-importin beta complex; 340,000 tested, 0.031% active; Q14974; Potency, µM (series often up to 92.2 µM), without a hit: at the highest dose inhibition of complex formation; Rango CFP/YFP FRET sensor + importin beta, 45 min; AID 540263; active = rising FRET ratio curve, often small or poorly fitted; inconclusive = mostly compound fluorescence or quenching in the first reads; inactive = flat curves in all reads;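 note: potency is the fitted concentration of half-maximal effect; 0% = DMSO wells and 100% = buffer wells lacking importin beta; nearly all actives have a fitted effect of over 15% in size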
# Target sequence (Q14974 whole entry, looked up): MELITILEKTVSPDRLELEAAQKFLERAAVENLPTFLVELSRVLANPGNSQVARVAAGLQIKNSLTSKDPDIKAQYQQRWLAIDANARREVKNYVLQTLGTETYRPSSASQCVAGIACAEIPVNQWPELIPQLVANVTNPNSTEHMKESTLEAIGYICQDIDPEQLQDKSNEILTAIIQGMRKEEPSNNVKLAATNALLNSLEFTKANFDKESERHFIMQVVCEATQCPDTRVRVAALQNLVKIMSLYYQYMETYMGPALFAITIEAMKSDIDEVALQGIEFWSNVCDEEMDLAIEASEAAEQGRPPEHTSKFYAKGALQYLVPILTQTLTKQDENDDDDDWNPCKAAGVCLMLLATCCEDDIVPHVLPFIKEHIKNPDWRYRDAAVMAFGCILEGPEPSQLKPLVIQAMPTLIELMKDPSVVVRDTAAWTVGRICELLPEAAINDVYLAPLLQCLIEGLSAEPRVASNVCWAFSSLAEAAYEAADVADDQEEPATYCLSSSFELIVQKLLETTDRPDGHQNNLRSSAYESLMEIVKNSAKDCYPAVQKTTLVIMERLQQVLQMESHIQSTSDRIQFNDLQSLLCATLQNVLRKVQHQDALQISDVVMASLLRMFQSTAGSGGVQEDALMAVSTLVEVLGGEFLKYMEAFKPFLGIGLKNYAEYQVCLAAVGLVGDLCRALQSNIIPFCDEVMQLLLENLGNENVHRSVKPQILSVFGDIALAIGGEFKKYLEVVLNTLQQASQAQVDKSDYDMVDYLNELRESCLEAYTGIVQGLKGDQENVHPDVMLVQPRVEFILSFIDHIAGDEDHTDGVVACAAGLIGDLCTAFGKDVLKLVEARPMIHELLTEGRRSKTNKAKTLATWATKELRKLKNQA
#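 FRET biosensor (snurportin 1 IBB flanked by EYFP and cerulean), 50 nM, with compound 5 min, then 0.125 microM importin beta in PBS, 1 mM DTT, 0.02% Tween-20, 0.1% BSA. CFP/YFP ratio read after 45 min at room temperature; pre-read flags interference.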
# Rango dissoc inh: inhibition of RanGTP-driven Rango-importin beta dissociation; 340,000 tested, 0.071% active; O95149+P62826; Biochemical FRET Rango-importin beta, RanGTP-induced dissociation; Potency, µM (titrated, usually from 46.1 µM), for the others: top-dose activity change, negative = inhibition; active means falling FRET ratio curve, often poorly fitted, with flat reads before Ran was added; inconclusive means other falling curves, or compound fluorescence or quenching; inactive means flat or rising ratio curve;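 note: potency is the fitted concentration of half-maximal effect; % of control where 0% means no effect; nearly all actives have a fitted effect of over 45% in size; -100% = wells without RanGTP and RCC1; the record marks most hits as doubtful in a second field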
#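 Quantitative HTS using a FRET biosensor: 0.1 uM Rango, 0.25 uM importin beta, 0.6 uM Ran, 2 mM GTP, 0.2 uM RCC1 final, PBS with DTT, Tween-20 and BSA. Post-read taken 45 min after Ran addition.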
# * marks the source's active call; other numbers are inactive results; ? = inconclusive; · = no result given; & = joins results of further samples; [ ] = another dose, or the depositor's remark. Only part of the results is shown (hit frequency here may not be typical).
SMILES,miR-21 reporter,GLA inh pH 4.5,Rango-impB inh,Rango dissoc inh
Cc1ccc(S(=O)(=O)N(CC(=O)N2CCCCCC2)c2ccccc2)cc1,-10%,1,-0.3%,1%
CCCCN1CC(=O)N2[C@H]3c4cc(OC)ccc4OC[C@@H]3[C@H](C(=O)OCC)[C@]2(C)C1=O,·,·,0.0%,1%
O=C(CN1C(=O)NC2(CCCC2)C1=O)NNC(=O)c1ccccc1F,·,·,2.4%,18%
CC(C)(Oc1ccc(Cl)cc1)C(=O)NCCN1C(=O)S/C(=C/c2cccnc2)C1=O,10%,-4,0.1%,-8%
CC(OC(=O)/C(C#N)=C/c1ccc(N(C)C)cc1)C(=O)N(C)Cc1ccccc1 (configuration not stated),-5%,·,?,?
Cc1ccc([C@@H]2CC=C(C(=O)O)[C@H](c3ccc(Cl)cc3)N2S(=O)(=O)c2ccccc2C)cc1,·,·,?,-5%
Cc1ccc(CNS(=O)(=O)c2ccccc2[N+](=O)[O-])cc1,-15%,-6,-0.4%,0%
Cc1nnc(SCC(=O)NNC(=O)c2ccco2)s1,·,·,-1.3%,-1%
C=CCn1c(NC(C)c2cc(Cl)ccc2O)nc2ccccc21 (configuration not stated),25%,-15,-0.8%,-5%
CC1CC(C)CN(C(=O)c2cccc(S(=O)(=O)Nc3cc(C(F)(F)F)ccc3Cl)c2)C1 (configuration not stated),21%,-6,-2.6%,3%
Cc1ccc2c(c1)c1n[nH]c(=S)nc1n2CCc1ccccc1,-2%,·,-0.8%,-4%
N#C/C(=C\Nc1ccccc1SC(F)(F)F)c1nc(-c2ccc(Cl)cc2)cs1,-10%,8,-12%,2%

# Brought forward from above: 4 compounds; new compounds follow.
SMILES,miR-21 reporter,GLA inh pH 4.5,Rango-impB inh,Rango dissoc inh
C=CCn1c(NC(C)c2cc(Cl)ccc2O)nc2ccccc21 (configuration not stated),25%,-15,-0.8%,-5%
CC1CC(C)CN(C(=O)c2cccc(S(=O)(=O)Nc3cc(C(F)(F)F)ccc3Cl)c2)C1 (configuration not stated),21%,-6,-2.6%,3%
Cc1ccc2c(c1)c1n[nH]c(=S)nc1n2CCc1ccccc1,-2%,·,-0.8%,-4%
N#C/C(=C\Nc1ccccc1SC(F)(F)F)c1nc(-c2ccc(Cl)cc2)cs1,-10%,8,-12%,2%
Cc1cc2ccccc2c(=O)n1CC(=O)N1CCN(c2cccc(Cl)c2)CC1,-1%,3,7.4%,20%
O=C(NC(=S)NCC1CCCO1)c1ccccc1 (configuration not stated),-31%,2,4.3%,16%
CCN1C(=O)C(CC(=O)Nc2ccc(OC)cc2)N(CCc2ccccc2)C1=S (configuration not stated),24%,-6,-3.9%,11%
NC(=O)c1ncc(C(F)(F)F)cc1Cl,1%,-8,4.6%,8%
O=C(NC(Cc1c[nH]c2ccccc12)C(=O)NCCCN1CCOCC1)c1cccs1 (configuration not stated),-5%,8,-0.8%,16%
COCCCNC(=O)/C(C#N)=C/c1c(N2CCN(c3cccc(Cl)c3)CC2)nc2c(C)cccn2c1=O,-3%,·,?,?
O=P(O)(COc1ccccc1)COc1ccccc1,-4%,2,5.0%,1%
Cc1ccc(C(C[N+](=O)[O-])c2c(-c3ccccc3O)[nH][nH]c2=O)cc1 (configuration not stated),13%,-7,0.6%,16%
COc1ccc(-n2c(C)cc(C(=O)CN3C(=O)NC4(CCCc5sccc54)C3=O)c2C)cc1 (configuration not stated),15%,-19,4.5%,-8%
COc1ccccc1N(CC(O)COc1ccccc1C)S(=O)(=O)c1ccccc1 (configuration not stated),2%,4,0.8%,-14%
CCN(CC)C(=O)CCCOc1ccc(Cl)cc1Cl,-84%,-7,-1.3%,1%
Cc1cc(C(=O)Nc2sc(C)c(C)c2C#N)no1,-24%,-3,-0.5%,0%
CCN(CC)CCn1c2c(c(SCC(=O)Nc3cccc(C(C)=O)c3)nc1=O)CCCC2,·,·,-0.2%,7%
O=C(CC1C(=O)NCCN1Cc1ccc(-c2ccccc2)cc1)NCC1CC1 (configuration not stated),0%,-22,1.3%,-3%
COc1cccc(C(=O)N(CN2CCCC2=O)c2cccc(Cl)c2)c1OC,4%,7,0.1%,5%
CCc1cccc(OCCN2CCCC2)c1,-12%,6,-2.7%,-1%
Cc1ccc(C2(C)NC(=O)N(CC(=O)N(C)CC(=O)Nc3cccc4ccccc34)C2=O)cc1 (configuration not stated),·,·,2.6%,-9%
COc1ccc(CN2CCN(C(=O)c3cccc(OC)c3OC)CC2)cc1OC,4%,7,2.1%,-5%
Cc1ccc(SCC(=O)Nc2cccc(-c3nnc(-c4ccco4)o3)c2)cc1,16%,-10,0.0%,7%
CC(C)C(OC(=O)c1ccco1)C(=O)NCc1ccc2c(c1)OCO2 (configuration not stated),-2%,·,?,-10%
O=C(NCC(c1ccco1)N1CCc2ccccc21)c1ccc([N+](=O)[O-])cc1 (configuration not stated),·,·,-0.2%,-1%
CCOC(=O)N1CCN(C(=O)CN(c2cc(Cl)ccc2OC)S(=O)(=O)c2ccccc2)CC1,-5%,-6,7.1%,-1%
COC(=O)c1cc(NC(=O)N2c3ccccc3Sc3ccccc32)cc(C(=O)OC)c1,0%,-5,0.3%,-14%
COc1ccc(COC(=O)N/N=C(\C)CC(=O)Nc2ccc(Cl)cn2)cc1,0%,1,0.2%,-5%
N#CCSc1ccc(S(=O)(=O)N2CCOCC2)cn1,·,·,-0.9%,-4%
CC(C)N(Cc1ccccc1)C(=O)CN1C(=O)NC2(CCCC2)C1=O,·,·,?,21%
O=S(=O)(NC1CCCC1)c1ccc(S(=O)(=O)N(Cc2cccs2)CC2CCCO2)cc1 (configuration not stated),6%,-24,2.5%,-3%
COc1cccc(-c2sc3ccc(OC)cc3c2-c2cc(F)cc(OC)c2)c1,·,·,-4.6%,-8%
Clc1ccc2nc(COc3ccccc3)[nH]c2c1,-16%,·,-0.9%,?
Cc1sc(NC(=O)CCCC(=O)O)c(C(N)=O)c1-c1ccccc1,20%,-15[21.1 µM],-3.1%,14%
O=C(CNS(=O)(=O)c1cccc2nsnc12)NCc1ccc(Cl)cc1,-8%,6,0.1%,1%
NC(=O)c1c(Nc2nc3c(F)cccc3s2)sc2c1CCCC2,-20%,-1,?,?
CCC(=O)N1CCc2cc(S(=O)(=O)CCC(=O)N3CCN(c4ccccc4)CC3)ccc21,-1%,·,-0.8%,-8%
CC1CN(C(=O)c2ccc(COc3ccc(C(C)C)cc3)o2)CC(C)O1 (configuration not stated),-39%,-7,-1.2%,-3%
COc1ccccc1NS(=O)(=O)c1ccc(C(=O)OCC(=O)NCc2ccco2)cc1,-3%,0,0.1%,5%
Brc1cc2c(cc1/C=N/Nc1nc(N3CCCC3)nc(N3CCOCC3)n1)OCO2,-4%,-1,-1.2%,-10%

# Entries of single compounds as entered above. Order of values: miR-21 reporter | GLA inh pH 4.5 | Rango-impB inh | Rango dissoc inh
# Listed for Cc1ccc(C2(C)NC(=O)N(CC(=O)N(C)CC(=O)Nc3cccc4ccccc34)C2=O)cc1 (configuration not stated) : · | · | 2.6% | -9%
# Listed for O=C(CN1C(=O)NC2(CCCC2)C1=O)NNC(=O)c1ccccc1F : · | · | 2.4% | 18%

# More compounds
SMILES,miR-21 reporter,GLA inh pH 4.5,Rango-impB inh,Rango dissoc inh
O=C(Cn1ncc2c1-c1ccccc1OC2)Nc1ccc(Cl)cn1,4%,7,0.7%,-4%
CC(C)NC(=O)Cn1cc(C(=O)COc2ccccc2)c2ccccc21,-8%,2,-2.4%,5%
Cc1cccc(Nc2c([N+](=O)[O-])c(=O)oc3ccccc23)c1,0%,3,-1.7%,1%
CCC(CO)N=C1CC(C)(C)CC(=O)/C1=C(/O)CCCN1C(=O)c2ccccc2C1=O (configuration not stated),-4%,-7,2.4%,-10%
COc1ccccc1-n1c(SCC(=O)Nc2cccc(S(N)(=O)=O)c2)nc2ccccc2c1=O,-9%,-6,-2.4%,-7%
Cc1ccc(-n2c(SCC(=O)N(C)C3CCS(=O)(=O)C3)nc3ccccc3c2=O)c(C)c1 (configuration not stated),·,·,2.8%,1%
Brc1ccc2c(c1)OCCOCCOCCOCCOCCOCCO2,-1%,-1,2.9%,-11%
Cn1c(=O)c2c(nc(NCc3ccc4c(c3)OCO4)n2Cc2ccc(F)cc2)n(C)c1=O,19%,?,-2.1%,6%
O=C(Cc1ccccc1)NC1CCS(=O)(=O)C1 (configuration not stated),-1%,2,-0.4%,1%
COc1ncccc1C(=O)N1CCC(n2nccc2NC(=O)CC(C)C)CC1,-11%,·,-2.1%,-3%
Cc1ccc(NC(=O)Cc2nnc(N)s2)cc1,3%,0,-0.9%,1%
COc1ccc(NC(=O)CCN2C(=O)C3C4C=CC(C4)C3C2=O)cc1 (configuration not stated),-13%,-14,0.0%,1%
Cc1cccc(NC(=O)CCCN2C(=O)c3ccccc3C2=O)n1,1%,-22,3.2%,-6%
CCc1ccc(-c2c(C)sc(NC(=O)C3CCC3)c2C#N)cc1,-8%,3,-3.2%,0%
COc1cccc2c(O)cc(=O)n(C)c12,-8%,·,-3.1%,?
C=C1C[C@]23C[C@@]1(O)CC[C@H]2[C@@]12C=C[C@H](O)[C@@](C)(C(=O)O1)[C@H]2[C@@H]3C(=O)O,·,·,-2.2%&-0.2%,-20%&-2%
COc1ccc(C(CC(=O)O)N2Cc3ccccc3C2=O)cc1OC (configuration not stated),-1%,·,4.6%,17%
O=C(CSc1nnc(-c2cccnc2)o1)Nc1cccc(F)c1,·,·,?,25%
Cc1ccc(NC(=O)COC(=O)c2c(C)nn(-c3ccccc3)c2C)cc1,·,·,0.7%,-1%
COc1ccccc1S(=O)(=O)Cc1ccc(C(=O)NCCN(C)C)o1,·,·,-0.4%,1%
CCOCCCNC(=O)N1CCOCC1,-2%,4,-3.8%,3%
COc1cccc(C(=O)N/N=C/C(Br)=C/c2ccccc2)c1,8%,3,-3.8%,-11%
CCOC(=O)[C@@H]1[C@H]2COc3ccccc3[C@@H]2N2C(=O)N(c3ccc(Br)cc3)C(=O)[C@]12C,·,·,0.7%,-14%
O=C(O)CCC(=O)NNc1nc2ccccc2nc1-c1ccccc1,0%,-2,0.0%,1%
Oc1[nH]c2ccccc2c1C=Nc1ccc2c(c1)OCO2,-30%,-2,?,-15%
NC(=O)c1ccsc1NC(=O)CSc1ncnc2sccc12,·,·,-1.8%,-12%
COc1ccc(C2C(C(C)=O)=C(C)Nc3ncnn32)c(OC)c1OC (configuration not stated),-3%,·,6.2%,-12%
CCOc1ccc(N(CC)C(=O)COc2cc(=O)n(CC)c3ccccc23)cc1,-2%,0,0.9%,6%
CCCCc1nc2cc(C(=O)N3CCC(O)CC3)ccc2o1,-32%,·,-2.4%,2%
CC1=NN(C(=O)CCCc2ccccc2)C(O)(C(F)(F)F)C1 (configuration not stated),-7%,4,-1.1%,-1%
CCOc1ccccc1C(=O)n1nc(C)cc1C,1%,6,-4.3%,-1%
CN(CCC1CCCCO1)C(=O)CCc1nnc(C2CCCCC2)o1 (configuration not stated),-48%,3,3.1%,?
CC(CCc1ccccc1)NC(=O)c1ccncc1 (configuration not stated),4%,-7,-0.5%,-7%
Cc1cc(C)nc(SCc2ccc(F)cc2)n1,-2%,2,6.2%,33%
Cc1ccc(C)c(Cn2nnc3c(=O)[nH]c(C4CCN(C(=O)c5cccs5)CC4)nc32)c1,12%,1,-0.4%,1%
CCSc1nsc(NC(=O)Nc2ccccc2Cl)n1,·,·,?,1%
CC(C)OCCCNC(=S)Nc1ccc(S(N)(=O)=O)cc1,-3%,-2,1.5%,-5%
CCN1CCN(Cc2ccc(NC(=O)c3ccc(C)c(NC(=O)c4csc(-c5ccncc5)n4)c3)cc2C(F)(F)F)CC1,24%,4,1.3%,48%
COc1cccc(COC(=O)c2c(C)nn(-c3ccccc3)c2Cl)c1OC,-3%,·,-1.2%,12%
Cc1cc(C(=O)COC(=O)c2ccc3c(c2)OCO3)c(C)n1Cc1cccs1,-16%,0,1.1%,-4%

# Single values from the entries so far.
# Result for `CCN1CCN(Cc2ccc(NC(=O)c3ccc(C)c(NC(=O)c4csc(-c5ccncc5)n4)c3)cc2C(F)(F)F)CC1` in Rango dissoc inh: 48%
# Result for `COc1cccc(COC(=O)c2c(C)nn(-c3ccccc3)c2Cl)c1OC` in Rango-impB inh: -1.2%
# Result for `Cc1cc(C(=O)COC(=O)c2ccc3c(c2)OCO3)c(C)n1Cc1cccs1` in Rango dissoc inh: -4%
